Sa growth 42C – S. aureus growth inhibition | 0.53% of 170,000 active | S. aureus RN4220 growth, OD600, 20 h, 42 °C; active compounds read low | AID 720641 | relative growth, % (no concentration beside the values);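 active = growth at 42 °C up to 50% and 20 or more points under that at 30 °C, or under 10% at both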;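 also: 300 nL library stock went into each well; scaled to the means of positive and negative controls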
GIV Gai3 FP – inhibitors of GIV GBA-motif binding to rat Galpha-i3; P08753; Galpha-i3/FITC-GIV peptide fluorescence polarization, 90 min; active compounds read low; scaled: aluminum fluoride 0%, vehicle 100%; percent of control (FP), % (test concentration not listed); 0.42% of 210,000 active; AID 1224905;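 active = replicate mean at 85% of control or lower, very high polarization wells dropped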;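 also: lower values mean more displacement of the GIV peptide from Galpha-i3; wells of about 15 µL received 100 nL stock; the first replicate is given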
Target sequence (P08753 whole entry, looked up): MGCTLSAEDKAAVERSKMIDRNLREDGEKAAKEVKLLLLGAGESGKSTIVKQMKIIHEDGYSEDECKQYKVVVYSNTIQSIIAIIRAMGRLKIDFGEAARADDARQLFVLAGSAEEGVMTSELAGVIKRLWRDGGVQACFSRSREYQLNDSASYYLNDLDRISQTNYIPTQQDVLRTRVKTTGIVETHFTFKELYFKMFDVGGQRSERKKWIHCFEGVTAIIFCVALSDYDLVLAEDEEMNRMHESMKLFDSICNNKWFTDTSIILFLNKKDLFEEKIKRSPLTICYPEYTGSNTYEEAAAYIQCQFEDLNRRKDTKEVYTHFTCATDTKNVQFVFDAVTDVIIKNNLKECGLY
HCMV UL50-53 inh – inhibitors of HCMV UL50-UL53 nuclear egress complex interaction; HTRF UL50-UL53 interaction, normalized percent inhibition; inhibition, % (concentration not given with the values); 0.15% of 190,000 active; AID 1918969;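 active = both replicates at 50% or more, plus weaker picks with an unusually low signal ratio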;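 also: stock transfer was 100 nL into about 20 µL; 0% = negative control wells and 100% = wells with untagged competitor protein; inactives centre near -12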
Sa growth 42C second temp – recorded beside Sa growth 42C, whose call it bears; relative growth, %; measured here: growth at 30 °C;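 optical density after 20 h as mean of two plates; 100% = untreated growth and lower means inhibition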
Active calls of the source: *; / = no result given; & = joins results of further samples.

Start of the listing, in advance:
item	canonical_smiles	Sa growth 42C	Sa growth 42C second temp
1	COc1ccc(-c2csc(S(C)=O)c2C#N)cc1 (configuration not stated)	96	94
2	COc1ccc2c(c1)c(=O)c(S(=O)(=O)c1ccc(F)cc1)cn2Cc1ccccc1Cl	107	92

item	GIV Gai3 FP	HCMV UL50-53 inh
1	108	-24
2	107	-7

All compounds of this part, from the start:
item	canonical_smiles	Sa growth 42C	Sa growth 42C second temp
1	COc1ccc(-c2csc(S(C)=O)c2C#N)cc1 (configuration not stated)	96	94
2	COc1ccc2c(c1)c(=O)c(S(=O)(=O)c1ccc(F)cc1)cn2Cc1ccccc1Cl	107	92
3	Cc1sc(-c2noc(C3CC3)n2)cc1S(=O)(=O)NCC(=O)N1CCOCC1	/	/
4	CN(C)CCNC(=O)CN1N=C(c2ccccc2)CCC1=O	112	103
5	CCC(C)[C@@H](C(=O)NCc1ccc(F)cc1)N1Cc2ccccc2C1=O (some centres not stated)	91	83
6	CCc1c(C)sc2c1CCN(Cc1ccc(F)cc1)C2c1ccccc1 (configuration not stated)	-1.1*	-0.5*
7	CCOC(=O)N1CCc2c(sc(NCc3sccc3C)c2C(=O)Nc2cc(Cl)ccc2OC)C1	96	86
8	COc1ccccc1N1CCN(C(=O)c2cc3c(=O)n(Cc4ccco4)ccc3nc2C)CC1	98	93
9	Cc1cccc(OCc2cc(=O)n3c4c(sc3n2)CCCC4)c1C	96	92
10	O=S(=O)(c1ccccc1)N1CCC(O)C2CCCCC21 (configuration not stated)	109	86
11	Cc1cc(C)cc(NC(=O)C2CCN(S(=O)(=O)c3ccc4c(c3)C(C)(C)C(=O)N4C)CC2)c1	/	/
12	CC(=O)O[C@@H]1[C@@H](OC(C)=O)[C@@H]2OC[C@@H](O2)[C@H]1OC(C)=O	102	83
13	CN(C)c1ccc(NC(=O)CSc2nc(-c3ccccc3)c3cc(F)ccc3n2)cc1	/	/
14	COc1ccc(C)cc1NC(=O)CSc1nc(=O)n(Cc2ccccn2)c2c1CCC2	96	94
15	COC(=O)c1c(C)nn(C)c1-c1ccno1	97	54

item	GIV Gai3 FP	HCMV UL50-53 inh
1	108	-24
2	107	-7
3	103	5
4	110	/
5	106	/
6	112	/
7	116	/
8	108	/
9	107	4
10	/	-1
11	102	-8
12	103	-30
13	103	-9
14	97	/
15	101	-3

In another format: results already given
Below each SMILES: Sa growth 42C | Sa growth 42C second temp | GIV Gai3 FP | HCMV UL50-53 inh
1	COc1ccc(-c2csc(S(C)=O)c2C#N)cc1 (configuration not stated)
    96 | 94 | 108 | -24
6	CCc1c(C)sc2c1CCN(Cc1ccc(F)cc1)C2c1ccccc1 (configuration not stated)
    -1.1* | -0.5* | 112 | /

Additional structures follow:
item	canonical_smiles	Sa growth 42C	Sa growth 42C second temp
16	CC(=O)c1ccc(N2CCN(C(=O)c3cn(C)c(=O)c4c3c3ccccc3n4C)CC2)cc1	110	96
17	CC1(C)CC(=O)C(N=Nc2ccc3c(c2)OCO3)=C(O)C1	112	102
18	CC1CCCCN1C(=S)NCc1ccccc1 (configuration not stated)	93	82
19	CC(C)CCNC(=O)Cn1c(SCc2c(F)cccc2Cl)nc2ccncc21	87	75
20	Clc1ccc(OCCn2cnc3ccccc32)cc1	78	43
21	OC1COCc2nc3ccccc3n2C1 (configuration not stated)	91	102
22	Cc1sc2ncn(CC(=O)NC3CCCC(C)C3C)c(=O)c2c1S(=O)(=O)N1CCC(C)CC1 (configuration not stated)	96	69
23	O=C(CSc1nnc(CCN2C(=O)c3cccc4cccc(c34)C2=O)n1-c1ccccc1)NCCCO	/	/
24	C=CCn1c(-c2c(C)oc3ccccc23)cs/c1=N\S(=O)(=O)c1cccs1	88	86
25	CCCOc1ccc(NC(=O)c2ccccc2C(=O)O)cc1	100	104
26	Cn1nccc1-c1cc(F)cc(F)c1O	97	92
27	Cc1cccc2sc(N3CCN(C(=O)CS(=O)(=O)c4ccc(F)cc4)CC3)nc12	99	66
28	O=C(Nc1ccc2oc(-c3cccc(F)c3)nc2c1)c1ccc2c(c1)OCCO2	/	/
29	COc1cc(Cl)c(NS(=O)(=O)c2ccc(-c3coc(C)n3)cc2)c(OC)c1	105	86
30	N#Cc1ccccc1NC(=O)CSc1nc(-c2ccccc2)cc(C(F)(F)F)c1C#N	110	89

item	GIV Gai3 FP	HCMV UL50-53 inh
16	108	0
17	181	-160
18	/	-10
19	101	/
20	105	/
21	106	-4
22	101	/
23	101	-134
24	/	-35
25	102	4
26	108	12
27	106	/
28	106	17
29	102	/
30	133	-36

(cont.)
item	canonical_smiles	Sa growth 42C	Sa growth 42C second temp
31	N/C(=N\c1nc(-c2cccs2)cc(C(F)(F)F)n1)Nc1cccc(Cl)c1	117	78
32	Oc1c(C(c2ccccc2)N2CCC(O)CC2)sc2nc(-c3ccco3)nn12 (configuration not stated)	131	89
33	CC1=C(C(=O)N2CCN(c3ccc(F)cc3)CC2)C2(CCCCC2)OC1=O	/	/
34	Cc1cc(C)cc(Nc2c3c(nc4nncn24)CCC3)c1	/	/
35	N#CCn1c(C(F)(F)F)nc2c(cnn2-c2ccccc2)c1=O	89	95
36	CCc1nnc(NC(=O)c2sc3nc4c(cc3c2N)CCCC4)s1	99	80
37	Cc1ccc(Cn2c(=O)oc3ccc(C(=O)NC4CCN(Cc5ccccc5)CC4)cc32)cc1	/	/
38	COc1ccc(NC(=O)Cn2nc(Cc3ccncc3)c3ccccc3c2=O)cc1OC	96	87
39	CSc1cc(-c2ccco2)[nH]c(=O)c1C#N	111	90
40	O=C1C=C(NNC(=O)COc2cccc(F)c2)CCC1	124	94
41	CCn1cc(C(=O)NCc2ccccc2)c(=O)c2cc(S(=O)(=O)N3CCCC3)ccc21	107	101
42	COc1cc2c(cc1OC)C(c1ccccc1NC(=O)c1cccc(Cl)c1)=NCC2	99	98
43	O=C(Nc1nc2c(s1)CN(Cc1ccccc1)CC2)C1CCCCC1	110	78
44	CN1C(=O)C(O)(CC(=O)c2ccccc2)c2ccccc21 (configuration not stated)	90	86
45	Cc1ccc2cc(-c3noc(CCC(=O)N4CCCC4)n3)c(=O)[nH]c2c1	/	/

item	GIV Gai3 FP	HCMV UL50-53 inh
31	101	/
32	99	/
33	113	-10
34	111	-16
35	/	-11
36	/	-19
37	103	-34
38	99	-10
39	100	-14
40	/	-29
41	103	/
42	107	-18
43	/	-9
44	/	-23
45	105	-20

(next part)
item	canonical_smiles	Sa growth 42C	Sa growth 42C second temp
46	O=c1onc2cnc3ccccc3n12	/	/
47	CC(C)C(=O)NC(=S)Nc1ccc(-c2nc3ncccc3o2)cc1	103	79
48	CN(C)Cc1ccccc1CNC(=O)c1ncc(Cl)c(Cl)c1Cl	77	93
49	CSc1nnc(C)c(=O)[nH]1	92&106	85&68
50	COC(=O)Cc1c(C)c2ccc3c(c2oc1=O)CN(Cc1cccc(OC)c1)CO3	85	81
51	O=C(O)C(C(=O)C1CC1c1ccccc1)=C1SCCS1 (configuration not stated)	131	107
52	Cc1ccn2c(=O)c(C(=O)NCC3CCCO3)c(O)nc2c1 (configuration not stated)	/	/
53	CCN(/C=C1/CCCCC1=O)C1CC2CCC1C2 (configuration not stated)	82	94
54	COCCNC(=O)c1nc[nH]c1C(=O)NCc1ccccc1	/	/
55	Cc1nn(-c2ccccc2)c(-n2cccc2)c1CNC(=O)Nc1ccccc1	/	/
56	CCCCC(C(=O)Nc1ccc(F)cc1)N1C(=O)c2ccccc2C1=O (configuration not stated)	87	78
57	CCc1ccc(NS(=O)(=O)c2c(C)[nH]c(=O)[nH]c2=O)cc1	81	86
58	O=C(NC1CCCC1)C(Sc1ccccc1)c1ccccc1 (configuration not stated)	105	121
59	O=S(=O)(Nc1ccc(C(F)(F)F)cc1)c1ccc2c(c1)OCCO2	78	76
60	O=C(Cn1c(=O)n(CCCC(=O)NC2CCCC2)c(=O)c2ccccc21)NCCC1=CCCCC1	88	86

item	GIV Gai3 FP	HCMV UL50-53 inh
46	101	-35&-18&-18&-60
47	98	-37
48	/	-23
49	98	-14&-5
50	98	/
51	/	-18
52	104	-9
53	/	-30
54	107	-5
55	100	-24
56	100	-29
57	157	/
58	/	-1
59	101	-31
60	105	-21

(list continues)
item	canonical_smiles	Sa growth 42C	Sa growth 42C second temp
61	COc1ccc(/C(C)=N/N2C(=O)c3ccccc3NC2c2ccccc2O)cc1 (configuration not stated)	128	89
62	COc1ccc(CC(=O)NCc2n[nH]c(=S)n2-c2cccc(C)c2)cc1	82	73
63	COCCNC(=O)Cn1cc(S(=O)(=O)Cc2ccccc2Cl)c2ccccc21	96	89
64	Cc1ccc(NC(=O)COC(=O)CC2SC(N3CCCC3)=NC2=O)cc1 (configuration not stated)	94	98
65	CC(C)(C)c1cc(C(=O)NN)n(Cc2ccccc2)n1	102	103
66	CN(Cc1cccnc1)C(=O)CNS(=O)(=O)c1ccccc1C#N	98	97
67	Cn1c(C(=O)NCc2ccc(F)cc2)cc2cc(S(=O)(=O)N3CCCCC3)ccc21	106	99
68	c1ccc(-c2nnc(SCc3cccnc3)o2)cc1	110	95
69	COc1ccc(CCNC(=O)CSc2nc(N3CCOCC3)nc(N3CCOCC3)n2)cc1OC	103	99
70	NC(=O)c1c(NC(=O)CSc2nnc3ccc4ccccc4n23)sc2c1CCCC2	/	/
71	Cc1ccccc1/C=C1\Sc2ccccc2N(CC(=O)NC(C)c2ccccc2)C1=O (configuration not stated)	112	100
72	CCC(C)NC(=O)CSc1nc2n[nH]c(C)c2c(=N)n1-c1ccc(Br)cc1 (configuration not stated)	96	83
73	CC(=O)N1CCc2c(sc3c2c(=O)n(Cc2ccccc2)c(=O)n3CC(=O)Nc2ccc(C)c(F)c2)C1	102	84
74	CC(c1ccccc1)n1c(CCc2ccc(O)cc2)n[nH]c1=S (configuration not stated)	96	93
75	O=C(NC(=O)c1ccccc1F)OCc1ccc(Cl)cc1Cl	106	98

item	GIV Gai3 FP	HCMV UL50-53 inh
61	99	/
62	101	-32
63	108	/
64	/	2
65	108	13
66	/	-28
67	102	/
68	104	-19
69	103	-5
70	101	-15
71	99	/
72	100	/
73	100	-32
74	101	-3
75	107	18

Whole records, looked up by structure. Screens in order: Sa growth 42C | Sa growth 42C second temp | GIV Gai3 FP | HCMV UL50-53 inh
COc1ccc(CC(=O)NCc2n[nH]c(=S)n2-c2cccc(C)c2)cc1 in the list: 82 | 73 | 101 | -32
CN(Cc1cccnc1)C(=O)CNS(=O)(=O)c1ccccc1C#N in the list: 98 | 97 | / | -28
COCCNC(=O)Cn1cc(S(=O)(=O)Cc2ccccc2Cl)c2ccccc21 in the list: 96 | 89 | 108 | /

Further records follow.
item	canonical_smiles	Sa growth 42C	Sa growth 42C second temp
76	CCOC(=O)c1oc2ccccc2c1NC(C)=O	109	86
77	O=C(CSc1ncccn1)n1c2c(c3ccccc31)CCCC2	111	93
78	COc1ccc(C2CC(=O)Nc3cc4c(cc32)OCO4)c(OC)c1 (configuration not stated)	114	102
79	COc1ccc(N(Cc2cccs2)C(=O)Nc2cccc(Cl)c2)cc1	109	86
80	COc1ccc(N2C(=O)CCS2(=O)=O)cc1S(=O)(=O)N(C)c1ccccc1	/	/
81	Cc1cc(NCc2cccnc2)n2ncnc2n1	106	94
82	Cc1nc(-c2ccc(S(=O)(=O)NCc3ccc(OC(C)C)cc3)cc2)co1	111	83
83	O=C(O)C1CCN(c2ncccn2)CC1	89	83
84	COc1ccc(C(=O)CCN2CCOCC2)cc1	63	60
85	O=C1CCC(=O)N1c1nc2n(n1)C(c1ccc(Cl)cc1)C=C(c1ccccc1)N2 (configuration not stated)	/	/
86	CC[C@H](C)C(=O)O[C@H]1C[C@H](O)C=C2C=C[C@H](C)[C@H](CC[C@@H](O)C[C@@H](O)CC(=O)O)[C@H]21	101	105

item	GIV Gai3 FP	HCMV UL50-53 inh
76	/	-18
77	105	2
78	105	2
79	100	-17
80	103	8
81	101	-12
82	107	/
83	104&108	-1&4
84	/	-12
85	100	-33
86	/	-2

Copied from the list:
Sa growth 42C result of no. 83 → 89
Sa growth 42C second temp result of no. 79 → 86
GIV Gai3 FP result of no. 80 → 103
GIV Gai3 FP result of no. 82 → 107
Sa growth 42C second temp result of no. 86 → 105
GIV Gai3 FP result of no. 78 → 105
Sa growth 42C result of no. 77 → 111

Screening data from PubChem BioAssay.

Rows are unselected. About 0.8% of those tested had a hit in this group.
